# TRPV1 PAM: human TRPV1 potentiation. hit rate 0.02% among 320,000. AID 540277. potentiation, % at 8.33 µM. TRPV1-expressing cells, Fluo-8 calcium influx, capsaicin EC20 potentiation; host cell line not named in the record; control for the full effect not named in the record; active means potentiation above 80%; inconclusive means 30% to 80%; inactive means below 30%; further: 0% is about no effect
# Target sequence (Q8NER1 whole entry, looked up): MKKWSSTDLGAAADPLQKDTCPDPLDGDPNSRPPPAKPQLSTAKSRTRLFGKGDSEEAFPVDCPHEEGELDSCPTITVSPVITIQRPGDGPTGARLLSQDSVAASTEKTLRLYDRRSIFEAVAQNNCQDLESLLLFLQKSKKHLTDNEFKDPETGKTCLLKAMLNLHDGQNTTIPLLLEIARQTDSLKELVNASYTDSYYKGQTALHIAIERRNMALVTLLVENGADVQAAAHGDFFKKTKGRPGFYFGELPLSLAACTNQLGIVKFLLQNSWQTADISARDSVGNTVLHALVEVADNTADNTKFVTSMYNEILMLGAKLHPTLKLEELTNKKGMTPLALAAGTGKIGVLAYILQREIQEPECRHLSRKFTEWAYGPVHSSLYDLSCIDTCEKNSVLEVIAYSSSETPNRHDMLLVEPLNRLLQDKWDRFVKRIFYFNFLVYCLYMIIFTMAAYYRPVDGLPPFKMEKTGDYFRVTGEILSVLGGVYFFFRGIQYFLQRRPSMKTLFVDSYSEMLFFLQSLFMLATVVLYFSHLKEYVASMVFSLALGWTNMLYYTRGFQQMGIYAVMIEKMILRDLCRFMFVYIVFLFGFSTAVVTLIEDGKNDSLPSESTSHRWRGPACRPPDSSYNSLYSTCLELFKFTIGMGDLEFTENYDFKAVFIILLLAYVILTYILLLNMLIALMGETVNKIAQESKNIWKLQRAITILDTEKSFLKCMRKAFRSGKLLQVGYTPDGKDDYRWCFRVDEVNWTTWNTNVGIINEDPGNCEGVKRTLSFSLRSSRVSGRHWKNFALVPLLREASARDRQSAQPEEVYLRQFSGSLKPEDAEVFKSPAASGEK
#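 Fluo-8 calcium influx in TRPV1-expressing cells, kinetic read (ex 480/em 520 nm). Compound added and read 3 min for agonist activity, followed by capsaicin at EC20 final and 2 min further read for enhancement.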
# Menin MLL FP FL: displaces fluorescein MLL peptide from human menin | Fluorescence polarization, fluorescein-MLL peptide displacement from menin | FP activity change, % at 61.4 µM | 290,000 tested, under 10 active; inconclusive = falling polarisation curve, or a change in total fluorescence; inactive = total fluorescence flat and polarisation flat or rising; no compound was filed as active; the % refers to the polarisation; negative = inhibition;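 further: % of control where 0% means no effect; inhibitors lower the polarisation; unlabelled MLL peptide was the positive control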
# D2 potentiator: human D2 receptor positive allosteric modulation; P14416; DiscoveRx D2 beta-arrestin cells, luminescence, 90 min; 100% = 57 uM dopamine signal; potentiation, % (test concentration not listed); hit rate 0.23% among 360,000; AID 624464; active = potentiation of 50% or more; inconclusive = 30% to 50%; inactive = 30% or less;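 further: compound concentration not given in the record; tested on top of an EC20 dose of dopamine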
#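 PathHunter beta-arrestin assay in DiscoveRx D2 cells. Compounds were added with an EC20 of dopamine (50 nM final) for 90 min at 37 deg C. Luminescence was read 1 h after detection reagent, with 57 uM dopamine as the EC100 control.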
# Sfp inh: Sfp phosphopantetheinyl transferase inhibition; Q9F4F7; Biochemical Sfp PPTase activity, qHTS; Potency, µM, for the others: max response, negative = inhibition, hits mostly inhibitors; hit rate 3.5% among 310,000; active means well fitted inhibition curve with a large enough effect; inconclusive means small, poorly fitted or top-dose-only effect, or another doubt; inactive means no such curve, though single readings can be large or run the other way;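 further: the enzyme is Sfp with the accession as filed and its product quenches rhodamine fluorescence; potency means the concentration at half of the fitted maximal effect; 0% = enzyme reaction without inhibitor and -100% = no enzyme wells; top concentration of the series not given in the record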
#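 After 15 min at room temperature with compound, 15 nM Sfp received 5 uM rhodamine-CoA plus 12.5 uM BHQ-2-ybbR (50 mM Hepes pH 7.6, 10 mM MgCl2). Rate came from the fluorescence difference over 30 min, ex 525/em 598 nm.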
# gsp antag: antagonists of gsp mutant (McCune-Albright syndrome) | gsp-mutant cells, cAMP HTRF, 30 min; control for the full effect not named in the record | Potency, µM (doses to about 76.9 µM), for the others: top-dose activity change, negative = inhibition, usual class: inhibitors | hit rate 0.4% among 340,000 | AID 624288; active = falling curve of any shape with a large fitted effect; inconclusive = falling curve, mostly with a smaller effect; inactive = flat or rising curve; cell line not stated here;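 further: intracellular cAMP measured with PDE inhibitor Ro 20-1724 present during compound exposure; potency means the concentration at half of the fitted maximal effect; on the % scale 0 is the no-effect control and ±100 the full control effect; nearly all actives have a fitted effect of over 65% in size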
#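 HTRF cAMP measurement after 30 min RT detection following 30 min, 37C compound treatment alongside […] (added as 300 uM solution) in G418-selected cells seeded at 2000/well and grown 16–24 h.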
# gsp agonist: agonists of gsp mutant (McCune-Albright syndrome) | gsp mutant cells, cAMP HTRF, 30 min; control for the full effect not named in the record | hit rate 0.13% among 340,000 | Potency, µM (series often up to 76.9 µM), inactives show at the top dose activation (cAMP increase), most hits filed as activators; active = well fitted activation curve with a large enough effect; inconclusive = small, poorly fitted or top-dose-only effect, or another doubt; inactive = no such curve, though single readings can be large or run the other way; cell line not stated here;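 further: phosphodiesterase inhibitor Ro 20-1724 added with compounds to block cAMP breakdown; potency means the concentration at half of the fitted maximal effect; nearly all actives have a fitted effect of over 60% in size; about a fifth of the inactives were tested at one dose only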
#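 Cells stably selected in G418 were plated at 2000/well, grown 16-24 hr, then given compounds in DMSO with the PDE inhibitor […] (300 uM solution added) for 30 min at 37C; cAMP was read by HTRF.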
# ClpP mod: qHTS Assay for Activators of ClpP; ATP-dependent Clp protease proteolytic subunit (Bacillus subtilis (strain 168)), P80244; purified B. subtilis ClpP, FRET peptide cleavage, 20 min; Potency, µM (titrated, usually from 57.5 µM), for the others: top-dose activity change, negative = active; hit rate 1.9% among 340,000; AID 651965, 2013; active = well fitted falling curve with a large enough effect; inconclusive = small, poorly fitted or top-dose-only effect; inactive = no such curve, though single readings can be large or run the other way; further: potency means the concentration at half of the fitted maximal effect; the source files actives as falling curves though it sought activators and does not explain the sign; nearly all actives have a fitted effect of over 65% in size; many hits overshoot -100%
# Target sequence (P80244 whole entry, looked up): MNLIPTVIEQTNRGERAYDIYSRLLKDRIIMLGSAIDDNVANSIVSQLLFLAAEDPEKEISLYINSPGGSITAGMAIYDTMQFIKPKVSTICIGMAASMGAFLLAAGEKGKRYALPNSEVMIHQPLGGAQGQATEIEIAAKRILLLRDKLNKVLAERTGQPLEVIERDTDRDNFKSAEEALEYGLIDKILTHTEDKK
#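 Purified B. subtilis ClpP, 10 microg/mL final in Tris/HCl pH8 with KCl, BSA, glycerol and Tween-20, cleaved an Abz/nitrotyrosine-quenched decapeptide. Fluorescence (ex 320, em 430) was read at 0 and 20 min at room temperature. Delta was normalized to 5.8 microM ADEP and DMSO/no-enzyme controls.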
# * = called active by the depositor; ? = inconclusive; · = not tested or not shown; & = joins results of further samples; [ ] = dose if it differs, or a comment.
canonical_smiles	TRPV1 PAM	Menin MLL FP FL	D2 potentiator	Sfp inh	gsp antag	gsp agonist	ClpP mod
NC(=O)CCS(=O)(=O)c1ccc(Cl)cc1	-6	0.1	5	13%	0%	15%[15.4 µM]	·
CC(C)(C)NC(=O)CSc1nnc(-c2c[nH]c3ccccc23)o1	-10	0.0	-1	10%	-7%	-8%	-2.5%
Nc1nc(N)nc(-c2cc(F)ccc2O)n1	4	·	-5	·	-6%	19%	-13%
CCOc1ccc(-n2c(N)c(C(=O)NCc3cccnc3)sc2=S)cc1	12	5.7	-13	?	6%	0%	0.9%
N/C(Cc1ccc([N+](=O)[O-])cc1)=N\OC(=O)C(c1ccccc1)c1ccccc1	-1	9.4	89*	10%	-4%	-29%	0.8%
CC1(C)CCC(C)(C)NC(=S)N1	-5	6.3	-1&-13	1%	5%	-46%&-47%[inhibitor]	-1.2%&0.4%
Cc1cccc(C)c1NC(=O)c1cc(S(=O)(=O)N2CCc3ccccc32)cn1C	2	-0.6	-5	-1%	1%	-34%[inhibitor]	1.2%
COc1ccc(C(=O)Nc2cccc(OC)c2)cc1	?	0.8	-4	-14%	-15%	0%	-1.6%
Cc1cc(=O)n2c(-c3ccccc3C)n[nH]c2n1	-2	2.5	-23	13%	-4%	3%	-5.3%
Cc1ccc(S(=O)(=O)N2CC(=NO)C2)cc1	0	-2.8	-2	4%	7%	0%	0.6%
Cc1ccc2c(c1)[C@H]1[C@H](CO2)[C@H](c2ccccc2)[C@]2(C)C(=O)N(Cc3ccco3)CC(=O)N12	·	·	-1	·	-21%	19%	-2.4%
O=C1/C(=C/c2ccco2)SC(=S)N1c1cccnc1	12	?	-2	32µM*	-2%	20%[15.4 µM]	·
CNC(=O)c1cc2ccc(OC)cc2oc1=O	-8	4.9	12	8%	7%	-2%	84%
Cc1csc2nc(CNC(=O)C3CC=CCC3C(=O)O)cn12 (stereo not given)	23	4.0	-8	-1%	-5%	19%	-3.3%
C/C(=N/NC(=O)c1ccc(C)s1)c1cccc(NC(=O)COc2ccc(Cl)cc2C)c1	5	-1.5	8	23%	1%	?	17%
COc1ccc(-c2nnc(N)s2)cc1OC	·	·	-2	·	6%	-20%	·

# Next part, starting with the last 2 of the part before.
canonical_smiles	TRPV1 PAM	Menin MLL FP FL	D2 potentiator	Sfp inh	gsp antag	gsp agonist	ClpP mod
C/C(=N/NC(=O)c1ccc(C)s1)c1cccc(NC(=O)COc2ccc(Cl)cc2C)c1	5	-1.5	8	23%	1%	?	17%
COc1ccc(-c2nnc(N)s2)cc1OC	·	·	-2	·	6%	-20%	·
Cc1ccc(NC(=O)COc2ncnc3c(Cl)cc(Cl)cc23)cc1[N+](=O)[O-]	14	0.4	-16	-13%	5%	11%	1.5%
CC1=C/C(=N\NC(=S)Nc2cccnc2)CC(C)(C)C1	-9	-4.9	-25	-1%	-59%	26%[15.4 µM]	·
Cc1cccc(C)c1NC1=NCCCCC1	-5	-1.3	-27	24%	13%	10%[15.4 µM]	-2.8%
CSCC(=O)N1CCCC(N2CCN(c3ccc(F)cc3)CC2)C1 (stereo not given)	2	0.5	-10	18%	11%	-27%	·
O=C(CN1CCCC1)NN=C(c1ccccc1)c1ccccc1	6	-1.5	-4	9%	5%	-3%	-2.1%
Cn1c(CSCc2ccc(F)cc2)nnc1SCC(=O)Nc1nccs1	3	1.4	4	22%	?	-14%	-4.6%
Cn1nc(C(=O)Nc2nc(-c3ccc(F)cc3)cs2)ccc1=O	-18	2.1	-8	10%	-5%	-2%	-1.2%
COc1ccccc1NS(=O)(=O)c1ccc(O)c(C(=O)OCC(=O)c2ccc(Cl)cc2Cl)c1	12	9.2	-20	8%	-34%	-5%[15.4 µM]	·
COc1cccc(NC(=O)Nc2nnc(Cc3ccc(F)cc3)s2)c1	?	-6.6	-2	-10%	8%	27%[15.4 µM]	-2.7%
C/C(=N\Nc1ccccn1)c1ccc2c(c1)OCO2	-13	0.4	0	8%	·	-3%[15.4 µM]	·
CC1CCCN(CC(=O)Nc2cc(Cl)ccc2Oc2ccccc2)C1 (stereo not given)	?	-2.6	-10	-7%	-16%	20%	·
COC(=O)/C=c1\sc2ncnn2c1=O	2	2.6	-21	10µM*	6%	15%	?
CCOC(=O)c1ccc(NC(=O)Cn2cnc(S(=O)(=O)N3CCCC3)c2)cc1	-17	·	-10	20%	8%	0%	0.9%&-0.7%
O=C1COc2ccc(C(=O)COC(=O)CNC(=O)c3ccco3)cc2N1	1	2.0	-2	20%	5%	?	-5.5%
COc1ccc(S(=O)(=O)N2CCC(n3cnc4ccccc43)CC2)cc1	7	3.5	-2	10%	4%	-23%	·
O=C(O)c1ccc(/C=C2\SC(=Nc3ccccc3)N(c3ccccc3)C2=O)cc1	-6	0.5	-2	79µM*	?	-96%[inhibitor]	1.9%

# Grouped by structure: those above containing an aryl methoxy group (six)
canonical_smiles	TRPV1 PAM	Menin MLL FP FL	D2 potentiator	Sfp inh	gsp antag	gsp agonist	ClpP mod
COc1ccc(C(=O)Nc2cccc(OC)c2)cc1	?	0.8	-4	-14%	-15%	0%	-1.6%
CNC(=O)c1cc2ccc(OC)cc2oc1=O	-8	4.9	12	8%	7%	-2%	84%
COc1ccc(-c2nnc(N)s2)cc1OC	·	·	-2	·	6%	-20%	·
COc1ccccc1NS(=O)(=O)c1ccc(O)c(C(=O)OCC(=O)c2ccc(Cl)cc2Cl)c1	12	9.2	-20	8%	-34%	-5%[15.4 µM]	·
COc1cccc(NC(=O)Nc2nnc(Cc3ccc(F)cc3)s2)c1	?	-6.6	-2	-10%	8%	27%[15.4 µM]	-2.7%
COc1ccc(S(=O)(=O)N2CCC(n3cnc4ccccc43)CC2)cc1	7	3.5	-2	10%	4%	-23%	·

# Later entries:
canonical_smiles	TRPV1 PAM	Menin MLL FP FL	D2 potentiator	Sfp inh	gsp antag	gsp agonist	ClpP mod
O=c1nc2ccccc2c2n1CC(CN1CCN(c3ccccc3F)CC1)N2 (stereo not given)	5	2.6	-21	11%	0%	16%	-5.8%
CCN(C(=O)c1ccc(C(C)(C)C)cc1)c1nnc(Cn2nnc3ccccc32)s1	-6	-0.6	9	8%	?	15%	-1.5%
COc1ccc(C(CC(=O)Nc2ccc(Cl)cc2F)NC(=O)C(F)(F)F)cc1 (stereo not given)	20	0.1	-18	14%	11%	-38%[inhibitor]	0.9%
O=C(NCC1CCCO1)c1ccc(Cl)c(S(=O)(=O)Nc2ccccc2)c1 (stereo not given)	-11	·	-19	2%	4%	-4%[15.4 µM]	-0.7%
O=C(O)CCCCc1nc2ccccc2s1	10	-1.1	-1	-3%	1%	-46%[inhibitor]	-1.8%
CC(=O)Nc1ccc(NC(=O)c2ccc(-c3ccccc3Cl)o2)cc1	30	·	10	·	-4%	7%[15.4 µM]	-29%
O=S1(=O)CCN(C(CCO)c2cccc(C(F)(F)F)c2)CC1 (stereo not given)	3	-3.4	0	14%	14%	15%[15.4 µM]	·
O=C(Nc1ccc(NC(=O)c2ccccc2Cl)cc1)c1cccnc1	0	-6.3	-12	18%	7%	-7%	·
O=C(Nc1ccc2oc(-c3ccc(Cl)c(Cl)c3)nc2c1)c1ncn[nH]1	?	12	-10	8%	-8%	12%	1.1%
COc1ccc(N2C(S)=C(C#N)C(=O)NC2c2ccco2)cc1 (stereo not given)	1	-2.5	-6	28µM*	-6%	8%	-3.1%
O=C(CS(=O)(=O)c1ccccc1)N1CCCCC1	7	-4.1	-6	11%	-7%	-17%	-1.1%
CCC1(CC)Cc2ccccc2-c2nc(CN(C)C)[nH]c(=O)c21	-11	4.5	-20	-4%	4%	-33%[inhibitor]	·
C[C@@H]1ON(C2CCCCC2)[C@H]2c3nc4ccccc4n3C[C@@H]12	22	-6.4	-8	8%	8%	29%	-0.3%
Cc1ccc(C(=O)C(C)Oc2cccc(NC(=O)c3ccco3)c2)cc1 (stereo not given)	-7	4.4	-23	-12%	-17%	-17%	1.3%
CC1CCC(NS(=O)(=O)c2cccc3nsnc23)CC1 (stereo not given)	8	-0.5	3	10%	-10%	20%[15.4 µM]	·
c1cc(CNCCCN2CCOCC2)ccn1	-1	-1.1	-11	7%	14%	-25%	-0.6%
C=CCN(C(=O)CNC(=O)c1cccs1)C(C(=O)NC(C)(C)C)c1ccccc1 (stereo not given)	-5	-0.6	-1	26%	11%	-2%	0.2%
O=C1CCC(C(=O)N2CCCCCC2)CN1CCc1ccc(Cl)cc1 (stereo not given)	6	5.5	-15	16%	8%	-59%[inhibitor]	0.4%
Cc1nc2cc(Cc3ccccc3)ccc2o1	·	·	3	·	5%	?	-1.0%
Cc1ccc(NC(=O)CSc2nnc(-c3cccnc3)n2CCN2CCCCC2)cc1	-1	8.3	-29	-6%	7%	7%	1.2%
CC(C)OCCCNC(=O)CCN1C(=O)COc2ccccc21	10	-7.1	-4	14%	0%	-24%	1.3%
O=C(Nc1ccccc1)c1cccnc1NCCc1ccccc1	-6	-0.2	1	-3%	-6%	-45%[inhibitor]	-1.7%
COc1ccc(C(=O)Nc2ccc(-c3nnn(CC(=O)NCc4ccco4)n3)cc2)cc1	-5	5.5	-14	9%	-1%	4%	-9.3%
CN1CCC(N(CCc2ccccc2)C(=O)CCC(=O)O)CC1	-1	-3.5	-2	2%	2%	2%[15.4 µM]	-0.3%
COc1ccc(-c2cc(N3C(=O)Nc4ccccc4N3O)n[nH]2)cc1OC	-6	0.6	-4	-8%	1%	-8%[15.4 µM]	1.8%
CCOC(=O)NNC1CC(=O)N(c2ccc(OC)cc2)C1=O (stereo not given)	-12	2.0	5	12%	5%	-7%	-6.1%
O=C(Nc1nccs1)c1ccc(Br)c(S(=O)(=O)N2CCCC2)c1	-10	1.0	-23	22%	-3%	1%	1.1%
S=C(Nc1ccccc1)Nc1ccc(Br)cc1	?	2.6	-16	-18%	-1%	?	-2.2%

# High-throughput results from PubChem BioAssay.
